Assay outcomes (PubChem)
FGF22 binding = binders of human FGF22 protein, primary screen, FGF22 synaptogenesis inhibitor project, biophysical, thermal shift, single point; 340,000 compounds, 1.5% hits; recombinant FGF22 thermal shift, SYPRO orange fluorescence; percent of sucrose octasulfate shift, DMSO zero; Fibroblast growth factor 22 (Homo sapiens), Q9HCT0; AID 651658, 2012; calls only at 9.99 µM;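 active means melting point raised past a set limit in the mean and every replicate; inconclusive means no clear call; three in four hits are not shown here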
Target sequence (Q9HCT0 whole entry, looked up): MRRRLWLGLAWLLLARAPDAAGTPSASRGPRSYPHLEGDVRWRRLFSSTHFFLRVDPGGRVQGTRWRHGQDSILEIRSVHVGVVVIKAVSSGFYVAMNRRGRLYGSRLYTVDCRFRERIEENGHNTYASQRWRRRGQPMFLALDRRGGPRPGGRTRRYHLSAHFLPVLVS
Ecoli growth = E. coli growth inhibition, primary screen, OD600; Escherichia coli growth, 23 h; active compounds read low; OD600 absorbance (concentration not given with the values); 330,000 compounds, 0.21% hits; AID 1053175, 2014;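 active means OD600 absorbance below the run mean of sample wells minus 3.6 SD, in any replicate, cut at about 0.56 in these data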;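 further: stock transfer was 300 nL into about 60 µL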
Beta2AR agonist = beta2AR agonists driving receptor internalization, primary screen, cell-based, FAP fluorogen, flow cytometry | Am2.2-beta2AR cells; reference of the scale not given here | response, % (test concentration not listed) | Beta-2 adrenergic receptor (Homo sapiens), P07550 | 340,000 compounds, 0.43% hits;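 active means response above a set limit, near 3 SD of response in nonfluorescent compounds, cut at about 42% in these data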;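 further: stock transfer was 100 nL into about 11 µL; a reference agonist was the positive control; negative values mostly stem from fluorescent compounds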
Target sequence (P07550 whole entry, looked up): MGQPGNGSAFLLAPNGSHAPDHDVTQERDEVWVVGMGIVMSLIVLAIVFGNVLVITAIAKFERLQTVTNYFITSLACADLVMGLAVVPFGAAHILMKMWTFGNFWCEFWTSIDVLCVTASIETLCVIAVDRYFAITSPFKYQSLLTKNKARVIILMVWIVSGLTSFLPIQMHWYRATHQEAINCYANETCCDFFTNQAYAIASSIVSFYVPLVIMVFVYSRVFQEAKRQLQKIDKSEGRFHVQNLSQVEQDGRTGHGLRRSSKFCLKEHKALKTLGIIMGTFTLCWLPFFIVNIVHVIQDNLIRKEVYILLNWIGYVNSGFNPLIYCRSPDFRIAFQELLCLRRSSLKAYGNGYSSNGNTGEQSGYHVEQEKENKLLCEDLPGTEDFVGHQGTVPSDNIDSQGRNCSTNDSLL
HNF4A DNA FP = change in binding of human HNF4A to DNA, primary screen, biochemical, fluorescence polarization, FITC-DNA | activity change, % at 10 µM | 360,000 compounds, 0.3% hits | Hepatocyte nuclear factor 4-alpha (Homo sapiens), P41235 | 1 h; in the data active means activity change above about 30%, passing the limit was not always enough;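 further: controls were the assay level and a saturating level of protein; the project sought stronger binding though the title names inhibitors; some compounds called inactive have numbers as strong as hits; positive values seem to mean higher polarization but the record does not say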
Target sequence (P41235 whole entry, looked up): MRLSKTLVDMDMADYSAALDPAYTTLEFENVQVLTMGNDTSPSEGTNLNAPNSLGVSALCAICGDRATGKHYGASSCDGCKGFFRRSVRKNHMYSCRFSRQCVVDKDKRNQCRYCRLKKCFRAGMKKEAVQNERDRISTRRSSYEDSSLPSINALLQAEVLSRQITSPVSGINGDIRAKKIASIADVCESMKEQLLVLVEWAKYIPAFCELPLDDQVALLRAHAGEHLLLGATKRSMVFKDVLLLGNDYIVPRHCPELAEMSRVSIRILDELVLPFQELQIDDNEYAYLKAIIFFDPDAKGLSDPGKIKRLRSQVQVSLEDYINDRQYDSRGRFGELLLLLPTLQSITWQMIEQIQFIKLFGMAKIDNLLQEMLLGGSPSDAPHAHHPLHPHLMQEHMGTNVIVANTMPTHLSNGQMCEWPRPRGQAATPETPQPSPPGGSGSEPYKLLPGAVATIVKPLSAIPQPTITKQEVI
ALR inh = inhibitors of human ALR sulfhydryl oxidase, primary screen, biochemical, H2O2 detection, HRP-luminol luminescence, single point; FAD-linked sulfhydryl oxidase ALR (Homo sapiens), P55789; purified ALR, DTT oxidation; inhibition, % (no concentration beside the values); 290,000 compounds, 3.8% hits; AID 485317, 2010;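 active means mean and each replicate at 75% or more; inconclusive means only one of the two met; inactive means neither met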;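 further: stock transfer was 7.5 nL into about 7.5 µL; 0% = neutral wells and 100% = wells with inactivated enzyme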
LANA-H2B inh = blockers of LANA interaction with H2A/H2B – biochemical, FP readout, HTS, primary screen. cell-free LANA-H2A/H2B peptide, fluorescence polarization. inhibition, % (concentration not given with the values). 320,000 compounds, 0.6% hits; in the data active means inhibition mostly above about 10%, no sharp cut-off; inactive means mostly below about 6.7%;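 further: stock transfer was 7.5 nL into about 10 µL; 0% = median of vehicle wells and 100% = median of positive control wells; one replicate is shown; the record names a cut of 25% in any replicate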
UCH37 inh = inhibitors of human UCH37 deubiquitinase, primary screen, biochemical, Ub-AMC cleavage, fluorescence | purified proteasome/UCH37 | inhibition, % (no concentration beside the values) | 330,000 compounds, 0.33% hits | AID 588478, 2011;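 active means mean of two replicates above 20%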;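 further: 0% = compound-free wells with enzyme and 100% = wells lacking proteasome; stock transfer was 100 nL into about 20 µL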
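System: Proteasome-associated human UCH37 deubiquitinase; Input: 0.15 nM proteasome in added enzyme buffer; Also added: Ub-AMC substrate from 1 µM stock; Incubation: 30 min compound-proteasome preincubation then 25 min substrate reaction, room temperature; Detection: fluorescence, ex 355 nm, em 460 nm; Read-out: % inhibition of Ub-AMC cleavage fluorescence; Benchmarks: no-proteasome and no-compound wells.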
* marks the source's active call; other numbers are inactive results; i = inactive; ? = inconclusive; nt = not tested or not shown; & = joins results of further samples.

SMILES | FGF22 binding | Ecoli growth | Beta2AR agonist | HNF4A DNA FP | ALR inh | LANA-H2B inh | UCH37 inh
Cc1nn(-c2ccc(N3CCCCC3)nn2)c(C)c1CCC(=O)Nc1cc(F)ccc1F | i | 0.65 | -5 | -2.4 | -5 | 1.9 | 1.4
CC(=O)N1c2ccc(S(=O)(=O)NCCc3ccc(Cl)cc3)cc2CC1C (stereo unspecified) | i | 0.7 | 0 | -2.4 | -3 | 3.5 | 2.4
CCC(=O)c1ccc(OCC(=O)OCC(=O)c2c(N)n(C)c(=O)n(C)c2=O)cc1 | i | 0.63 | 0 | -1.5 | -2 | -309 | 0.0
Cc1ccc(S(=O)(=O)CCC(=O)OC(C)C(=O)Nc2ccc(N3CCOCC3)cc2)cc1 (stereo unspecified) | i | 0.68 | -11 | 1.7 | 5 | nt | 3.4
Cc1ccc(C(=O)NC(=S)N(C)Cc2ccccc2)cc1 | i | 0.67 | 0 | 0.6 | -7 | -4.7 | 6.4
CS(=O)(=O)N1N=C(c2ccccc2)CC1c1ccc2c(c1)OCO2 (stereo unspecified) | nt | 0.62 | -192 | 156 | -10 | -3.3 | 0.2
COc1ccc(-n2nc(C(N)=O)c(O)cc2=O)cc1 | i | 0.68 | -2 | 2.9 | -5 | -14 | 4.4
CC(=O)Nc1nnc(Cc2ccccc2)s1 | nt | nt | -2 | -0.4 | -11 | -1.7 | nt
CN(C)c1ccc(/C=N/N(CCC(=O)NC(C)(C)C)C2=NS(=O)(=O)c3ccccc32)cc1 | i | nt | 6 | 7.9 | nt | -4.7 | nt
NCCc1nnc(SCC(N)=O)o1 | nt | 0.68 | 2 | 3.3 | -7 | 0.0 | 3.1
O=S(=O)(c1cccc2cccnc12)N1CCc2ccccc21 | nt | 0.73 | 4 | -1.1 | -1 | 0.6 | -2.9
Cc1ccc(C(=O)Nc2cc(Cl)ccc2N2CCCCC2)s1 | nt | 0.68 | 5 | 3.6 | 8 | 5.3 | -0.2
COCCN(CC(=O)Nc1cccc(C)c1C)C(=O)c1cc(S(=O)(=O)N2CCCC2)ccc1C | i | 0.7 | -6 | -1.4 | -1 | -1.4 | 0.8
NS(=O)(=O)c1ccc(C(=O)Nc2ccc(-c3nc4cccnc4s3)cc2)cc1 | i | 0.7 | 5 | 3.2 | nt | 7.9 | -39
CCc1nccn1S(=O)(=O)c1cc(Br)ccc1OC | nt | 0.71 | -2 | 0.1 | -3 | -0.8 | 0.3
C=CCc1cccc2cc(C(=O)N3CCN(C(=O)c4ccco4)CC3)c(=O)oc12 | nt | 0.64 | -5 | -1.2 | -9 | 5.0 | -4.0
O=C(NC1CCCC1)c1ccccc1-c1ccccc1 | nt | 0.63 | -6 | -2.0 | 0 | -6.4 | 1.2
NS(=O)(=O)c1ccc(NC(=O)CN2CCN(S(=O)(=O)c3ccc(F)cc3)CC2)cc1 | i | 0.72 | -8 | 8.4 | -7 | 1.7 | 4.3
OC(CNCCc1ccc(Cl)cc1)COc1ccc2ccccc2c1 (stereo unspecified) | i | 0.56 | 14 | -1.0 | nt | nt | 4.1
Cc1ccc(-c2nc(CS(=O)CC(=O)NCc3ccccc3)c(C)o2)cc1 (stereo unspecified) | i | 0.81 | -3 | 3.3 | 98* | -19 | 1.4
C#Cc1ccc(C(=O)Nc2ccc(N3CCC(C)CC3)c(C(N)=O)c2)cc1 | nt | 0.7 | 9 | -1.5 | -3 | 5.2 | 1.8
COCCN(C(=O)COC(=O)C1COc2ccccc2O1)c1c(N)n(Cc2ccccc2)c(=O)[nH]c1=O (stereo unspecified) | i | 0.68 | -5 | 1.6 | -16 | -4.0 | -0.2
Cc1cc(C)cc(NC(=O)N2CCCC2C(=O)Nc2ccc(-n3cnnn3)c(C)c2)c1 (stereo unspecified) | nt | 0.73 | 0 | 8.8 | -8 | 4.4 | -0.8
NS(=O)(=O)c1ccc(N2N=C(c3ccccc3)CC2c2cccc(Br)c2)cc1 (stereo unspecified) | i | 0.68 | 3 | 2.5 | nt | nt | i
C/C(N)=C(/C#N)C(=O)COC(=O)C1Cc2ccccc2CN1S(C)(=O)=O (stereo unspecified) | i | 0.63&0.67 | 6&-8 | 1.4&-12 | -1 | 0.7 | 1.8&5.9
COc1ccc(Cl)cc1S(=O)(=O)N(C)CC(=O)NCc1ccccn1 | i | 0.68 | -4 | -3.0 | -1 | -2.5 | 7.0
Cc1ccc(C(=O)NCc2nnc(SCC(=O)Nc3sc4c(c3C#N)CCCC4)n2C)cc1 | nt | 0.71 | -12 | -1.8 | 1 | 1.2 | -0.8
Cc1ccc2cc(NC(=O)CC(CC(=O)O)c3ccccc3)ccc2n1 (stereo unspecified) | i | 0.68 | -6 | 4.3 | nt | -4.5 | -26
CC(C)C(=O)NNc1nc2ccccc2s1 | i | 0.69 | -13 | 0.8 | -11 | -0.8 | -2.0
C#CCSc1nnc(-c2ccc(OC)cc2)o1 | nt | 0.72 | 5 | -4.5 | -4 | -3.4 | -0.6
COc1cccc(N2CCN(C(=O)c3c(C)nn(-c4ccccc4)c3C)CC2)c1 | i | 0.74 | 8 | 0.0 | 35 | 3.1 | 2.9
CC(C)(C)c1ccc(C(=O)Nc2ccc(Cl)cc2)cc1 | i | 0.71 | 1 | -1.0 | -5 | -1.8 | -8.1
CCOCCc1nnc(NC(=O)Cc2c(F)cccc2Cl)s1 | i | 0.7 | 2 | -0.7 | -4 | -0.7 | 4.8
Cc1cccc(N2CCN(Cc3cnc(Cl)s3)CC2C)c1 (stereo unspecified) | i | 0.69 | 14 | 4.7 | 64 | 13 | 3.4
CCCn1c(C(C)Nc2nc(-c3ccc(C)cc3)cs2)nc2ccccc21 (stereo unspecified) | i | 0.67 | -4 | 3.9 | 23 | 4.7 | 4.7
OCCCCC#Cc1c(-c2ccsc2)sc2ccccc12 | i | nt | -2 | 1.8 | -4 | 3.0 | nt
CCOc1ccc(N(CC(=O)NCC2CCCO2)S(=O)(=O)c2ccc(Cl)cc2)cc1 (stereo unspecified) | nt | 0.67 | -25 | -3.6 | -2 | 0.0 | 0.4
Cc1c(NC(=O)c2noc3c2CCc2ccccc2-3)c(=O)n(-c2ccccc2)n1C | i | 0.71 | 4 | 1.9 | nt | -3.4 | 3.8
O=C(Nc1ncn[nH]1)c1ccc(Cl)c(S(=O)(=O)Nc2ccc(Cl)cc2)c1 | i | 0.71 | -6 | -2.8 | 1 | 2.1 | -0.2
O=C(CNC(=O)c1cccc(N2C(=O)c3ccccc3C2=O)c1)Nc1ccc(F)c(F)c1 | i | 0.7 | -7 | 1.6 | nt | -6.5 | 1.8
O=C(Cn1c(=O)oc2ccccc21)NCc1ccco1 | nt | 0.72 | 0 | 1.3 | -8 | -9.4 | 2.1
CCOC(=O)C1(CCCc2ccccc2)CCN(C(=O)C2CCCO2)CC1 (stereo unspecified) | i | 0.68 | -13 | 4.8 | -10 | -10 | 2.1
Cc1ccc(SCc2nc(-c3cccnc3)no2)cc1 | nt | 0.76 | 1 | -2.8 | -8 | 6.0 | -1.4
CNC(=S)N/N=C(\C)c1ccc(C)c(C)c1 | nt | nt | 6 | 1.0 | 63 | 4.1 | nt
Cc1ccc(Cl)cc1NC(=O)c1cc(NC(=O)C2CCCCC2C(=O)O)ccc1N1CCOCC1 (stereo unspecified) | i | 0.73 | 20 | -0.8 | 29 | -2.3 | 0.9
Cc1c(NC(=S)N2CCN(c3cccc(Cl)c3)CC2)c(=O)n(-c2ccccc2)n1C | nt | 0.68 | -5 | 2.6 | ? | 3.5 | 4.7
Cc1ccc(S(=O)(=O)N(C(=O)c2ccncc2)c2ccc(OC(=O)c3ccncc3)cc2)cc1 | nt | 0.72 | -8 | -3.0 | nt | 5.3 | -1.0
CCNC(=O)C1CCCN1C(=O)C(CCCN=C(N)N)NC(=O)C(CC(C)C)NC(=O)C(Cc1cn(Cc2ccccc2)cn1)NC(=O)C(Cc1ccc(O)cc1)NC(=O)C(CO)NC(=O)C(Cc1c[nH]c2ccccc12)NC(=O)C(Cc1cnc[nH]1)NC(=O)C1CCC(=O)N1 (stereo unspecified) | nt | 0.72 | nt | 2.7 | -3 | -6.6 | 3.9
CC(C)CC(NC(=O)C1CCC(C)CC1)C(=O)NCc1ccco1 (stereo unspecified) | i | 0.7 | -5 | 0.5 | -18 | -1.4 | 5.5
CCCn1c(N)cc(=O)n(C)c1=O | i | 0.67 | 9 | 3.2 | -15 | -1.1 | -0.7
CCOC(=O)Cc1csc(NC(=O)Cc2ccccc2)n1 | nt | 0.69 | -1 | 2.0 | 18 | 1.1 | -0.2
O=C(NCC1CCCO1)Nc1cc(Cl)cc(Cl)c1 (stereo unspecified) | i | 0.65 | 0 | -2.1 | -17 | 2.3 | 2.4
O=C(NCCOc1ccccc1F)Nc1ccc(Br)cc1 | i | 0.68 | -5 | 2.1 | nt | 1.2 | -2.7
Cc1cccc2cc(=O)[nH]c(C)c12 | nt | 0.69 | 13 | 0.2 | -3 | -14 | -2.3
O=C(COC(=O)Cc1cccc(F)c1)NCCc1ccccc1 | i | 0.69 | -1 | 2.5 | -3 | 1.9 | 0.2
Brc1cc(-c2ccccc2)nc(-c2ccccc2)n1 | i | 0.67 | -11 | 1.4 | 5 | -2.6 | 2.3
CCCN(Cc1nnc(-c2ccccc2Cl)o1)C(=O)c1ccc(C)c(S(=O)(=O)N2CCOCC2)c1 | i | 0.7 | 5 | 1.3 | -1 | 1.3 | 1.9
COc1ccccc1NC(=O)N(Cc1ccc2c(c1)OCO2)Cc1nc2ccccc2c(=O)[nH]1 | nt | 0.75 | 5 | -1.5 | 14 | -3.4 | 2.7
CC(=O)n1cc([C@@H]2C=C(C(=O)N3CCOCC3)O[C@H](OCc3ccc(CO)cc3)C2)c2ccccc21 | i | nt | -9 | -0.6 | -17 | 8.7 | 0.0
CC(=O)c1c(C)[nH]c(C(=O)N2CCN(C(=O)c3ccco3)CC2)c1C | nt | 0.73 | -3 | -5.9 | -11 | -0.1 | -1.0
O=C(COC(=O)CCN1C(=O)C2CC=CCC2C1=O)Nc1ccc(Cl)cc1F (stereo unspecified) | i | 0.68 | -1 | -0.8 | -1 | 2.3 | 4.5
COc1ccc(-c2cn(CCCOCc3ccccc3)nn2)cc1 | i | 0.63 | -8 | 0.3 | -10 | 1.6 | -0.9
CCCCCCNC(=O)c1cccc(-c2ccc(C)c3ccccc23)n1 | i | 0.7 | 6 | -6.4 | 9 | -3.7 | -0.7

Four structures from above, ordered by molecular weight, largest number first:
SMILES | FGF22 binding | Ecoli growth | Beta2AR agonist | HNF4A DNA FP | ALR inh | LANA-H2B inh | UCH37 inh
O=C(NCCOc1ccccc1F)Nc1ccc(Br)cc1 | i | 0.68 | -5 | 2.1 | nt | 1.2 | -2.7
COc1ccc(-c2cn(CCCOCc3ccccc3)nn2)cc1 | i | 0.63 | -8 | 0.3 | -10 | 1.6 | -0.9
O=C(COC(=O)Cc1cccc(F)c1)NCCc1ccccc1 | i | 0.69 | -1 | 2.5 | -3 | 1.9 | 0.2
CCCn1c(N)cc(=O)n(C)c1=O | i | 0.67 | 9 | 3.2 | -15 | -1.1 | -0.7

The list is partial; count on the stated rates, not on these rows.
